Screening data: PubChem, SRMLSC
H5N1 antiviral: MDCK cell protection from H5N1 avian flu; cytopathic effect, luminescence, 72 h; stronger effect = higher value; no value below 0 was filed and about half of the inactive calls have no number; reference of the scale not given here; inhibition, % at 50 µM; 96,000 tested, 0.07% active; AID 740, 2007; in the data active = inhibition above about 25%
Active calls of the source: *; i = inactive. These rows are one share of the data; count on the stated rates, not on these rows.

SMILES	H5N1 antiviral
CCOC(=O)C1CCN(c2c(NCCCN3CCN(Cc4ccccc4)CC3)c(=O)c2=O)CC1	3.3
CC1=Nn2c(nnc2-c2n[nH]c3c2CCC3)SC1	1.9
CCCCCCSc1nc2c(c(=O)[nH]c(=O)n2C)n1C	3.0
COc1ccc(S(=O)(=O)Nc2ccccc2C(F)(F)F)cc1	0.4
O=C(NCc1ccc2c(c1)OCO2)C1CCC(CNS(=O)(=O)c2cccc3nsnc23)CC1 (stereo unspecified)	0.2
C=CCc1ccccc1OCC(O)CN1CCN(c2ccc(OC)cc2)CC1 (stereo unspecified)	i
COc1ccc(NC(=O)c2cc3n(n2)C(C(F)(F)F)CC(c2ccco2)N3)cc1 (stereo unspecified)	i
N#CCCN(C(=O)Nc1ccc(Cl)cc1)c1ccccc1	i
Cc1sc2ncnc(SC(C)C#N)c2c1C (stereo unspecified)	i
O=C(c1ccco1)N1CCN(C(c2ccc(F)cc2)c2nnnn2Cc2cccs2)CC1 (stereo unspecified)	i
COc1ccccc1NC(=O)c1ccc(S(=O)(=O)N(C)C)cc1	0.5
COc1cc2c(cc1NC(=O)CSc1ccc(C)cc1)oc1ccccc12	0.5
Cc1[nH]c2ccccc2c1Cc1nnc(SCc2ccccc2)o1	1.5
Cc1ccc(S(=O)(=O)Nc2ccc3c(c2)nc2n3CCN(Cc3ccccc3)C2)cc1	4.8
CCCCNC(=O)c1ccc2c(c1)ncn2C1CCCC1	0.6
CCCNC(=S)Nc1ccc(Oc2ccccc2)cc1	i
Cc1cccc(NC(=O)CSc2nnc(-c3ccco3)o2)c1C	i
O=C(c1ccccc1)c1ccc(OC(=O)N2CCOCC2)cc1	i
Cc1ccc(S(=O)(=O)N2CCCC2C(=O)Nn2cnnc2)cc1 (stereo unspecified)	i
Cn1ccnc1SCC(=O)NC1CCCCC1	i
O=C(NNC1=C(C(=O)C(F)(F)F)CCC1)c1cccc(Cl)c1	5.1
COc1ccc2c(=O)c(-c3cnn(-c4ccccc4)c3)c(C)oc2c1	1.3
Clc1ccc(-c2cnc(Oc3ccccc3)nc2)cc1	i
CCCn1c2c(c(O)c(C(=O)Nc3nccs3)c1=O)CCCC2	i
CCN1CCN(C(=S)Nc2ccc(Cl)cc2)CC1	i

Part of the list above, reformatted.
> Cc1ccc(S(=O)(=O)Nc2ccc3c(c2)nc2n3CCN(Cc3ccccc3)C2)cc1
  H5N1 antiviral: 4.8
> CCCCNC(=O)c1ccc2c(c1)ncn2C1CCCC1
  H5N1 antiviral: 0.6

Further entries follow.
SMILES	H5N1 antiviral
O=C(Nc1ccc(Cl)cc1)N[C@@H]1c2c(ccc3ccccc23)OC[C@@H]1CO	i
COc1ccc2c(c1OC)C(=O)OC2C1c2c(cc3c(c2OC)OCO3)CCN1C (stereo unspecified)	0.4
O=C(NCCCn1ccnc1)c1cnn2c1NC(c1ccccc1)CC2C(F)(F)F (stereo unspecified)	i
CC(Cc1ccccc1)[n+]1cc(/N=C(\[O-])N(C)C)on1 (stereo unspecified)	i
CCn1c(=O)cc(OCC(=O)N2CCC3(CC2)OCCO3)c2ccccc21	0.2
COc1ccc2cc(Br)ccc2c1CC(=O)NC1CC(C)(C)NC(C)(C)C1	i
COc1ccc(NC(=O)NCCCN2CCc3ccccc3C2)cc1	i
CC(=O)Cn1c(N2CCC(Cc3ccccc3)CC2)nc2c1c(=O)[nH]c(=O)n2C	i
O=C(Oc1ccccc1-c1nnco1)c1ccc(Cl)cc1	i
CCc1ccc(C(=O)CSc2n[nH]c(-c3ccncc3)n2)cc1	i
CCC(Oc1ccccc1)C(=O)Nc1ccccn1 (stereo unspecified)	1.4
CCCN(CCC)C(=O)Cc1coc2ccc3ccccc3c12	i
Cc1ccc(NC(=O)CCN2CCN(C/C=C/c3ccccc3)CC2)cc1C	i
c1cncc(C(c2nnnn2C2CCCC2)N2CCCC2)c1 (stereo unspecified)	1.0
O=C(Nc1cc(C(F)(F)F)ccc1N1CCOCC1)c1ccc(F)cc1	i
O=C1OCCC1Sc1nnc(-c2ccccc2)o1 (stereo unspecified)	i
CCN(CC)Cc1cc(C(C)=O)ccc1O	0.6
CCOC(=O)Cn1c(=O)c2c(nc(Br)n2CC(=O)OCC)n(C)c1=O	0.1
CCOc1ccc(C2CC(c3ccc(CC)cc3)n3nc(N)nc3N2)cc1 (stereo unspecified)	0.9
COc1ccc(C)cc1S(=O)(=O)NCCC1=CCCCC1	2.2
CC(C)NC(=S)NN(c1ccccc1)c1ccccc1	i
COc1ccc(N2C(=O)CC(N3CCN(c4ccc(C(=O)c5cccnc5)cc4)CC3)C2=O)cc1 (stereo unspecified)	2.1
COc1cccc(NC(=O)COc2ncnc3sc(C)c(C)c23)c1	i
O=C(Nc1cc(C(F)(F)F)ccc1-n1cncn1)c1ccc(Br)cc1	i
CCN(CC(=O)Nc1ccc2c(c1)OC(F)(F)O2)Cc1nc2ccccc2c(=O)[nH]1	i

A portion from the list above, as a working copy:
SMILES	H5N1 antiviral
O=C(Nc1ccc(Cl)cc1)N[C@@H]1c2c(ccc3ccccc23)OC[C@@H]1CO	i
COc1ccc2c(c1OC)C(=O)OC2C1c2c(cc3c(c2OC)OCO3)CCN1C (stereo unspecified)	0.4
O=C(NCCCn1ccnc1)c1cnn2c1NC(c1ccccc1)CC2C(F)(F)F (stereo unspecified)	i
CC(Cc1ccccc1)[n+]1cc(/N=C(\[O-])N(C)C)on1 (stereo unspecified)	i
CCn1c(=O)cc(OCC(=O)N2CCC3(CC2)OCCO3)c2ccccc21	0.2
COc1ccc2cc(Br)ccc2c1CC(=O)NC1CC(C)(C)NC(C)(C)C1	i
COc1ccc(NC(=O)NCCCN2CCc3ccccc3C2)cc1	i

Retrieved one by one from the entries so far (2):
SMILES	H5N1 antiviral
Cc1ccc(NC(=O)CCN2CCN(C/C=C/c3ccccc3)CC2)cc1C	i
O=C1OCCC1Sc1nnc(-c2ccccc2)o1 (stereo unspecified)	i

Further entries follow.
SMILES	H5N1 antiviral
O=C(Nc1ccccc1)Oc1ccccc1	0.6
CCOc1ccc(NC(=O)CN(C)S(=O)(=O)c2cccs2)cc1	i
CC(=O)NCc1nc2ccccc2n1Cc1ccccc1C	i
CCOC(=O)N1CCOCCOCCN(C(=O)OCC)CCOCC1	i
O=c1c2c(nc3c(-c4cccc(Br)c4)c[nH]n13)CCCC2	3.2
Cc1ccc(Nc2nnc(SCC(=O)NCc3ccco3)s2)cc1	i
O=C(NCCC1=CCCCC1)c1ccc(Cl)c(S(=O)(=O)Nc2ccccc2)c1	i
CCNc1nc(NCC)nc(Oc2ccc(OCC)nn2)n1	i
CCCCCn1c(CCNC(=O)c2cccs2)nc2ccccc21	0.1
O=C(NCc1ccccc1)C(c1cccs1)N(Cc1cccs1)C(=O)c1cnccn1 (stereo unspecified)	i
CCOCCCN1CN(S(=O)(=O)c2ccc(Cl)cc2)c2nc3ccccc3nc21	0.9
Cc1cc(C)cc(OCC(=O)NNC(=O)c2cc3ccccc3oc2=O)c1	i
Cc1cc(C=C2C(=O)N(C)C(=S)N(C)C2=O)c(C)n1C1CCCCC1	1.3
CCCN(Cc1cc2cc(C)ccc2[nH]c1=O)C(=O)c1cccc(OC)c1	i
Cc1sc2nc(SCC(=O)N(CCO)CCO)n(C3CCCCC3)c(=O)c2c1C	0.6
COC(=O)Cn1c(SCc2ccccc2)nc2ccccc21	i
CCSc1nc2c(c(=O)[nH]1)C(c1ccncc1)C(C(=O)OC)=C(C)N2 (stereo unspecified)	1.8
CCCCN(Cc1ccccc1)S(=O)(=O)c1cc(Br)cc2c1N(C(C)=O)C(C)C2 (stereo unspecified)	0.3
COc1ccc(NC(=O)c2cccnc2N2CCCCC2)cc1	i
COc1ccccc1C(=O)Nc1cccc(NC(C)=O)c1	i
O=C(OCc1nc2ccccc2s1)c1cccs1	0.9
CCCOc1ccc(C(=O)Nc2cc(-c3nn4c(C)nnc4s3)ccc2C)cc1	0.4
CCc1nnc(NC(=O)c2ccc(N3C(=O)CCC3=O)cc2)s1	1.7
CCOc1ccc(N(CC(=O)NC(C)(C)C)C(=O)c2ccco2)cc1	1.3
O=C(Cc1ccc(F)cc1)OCC(=O)c1cc2ccccc2o1	i

(listing goes on)
SMILES	H5N1 antiviral
CC(C(=O)Nc1ccc(N2CCOCC2)cc1)N1C(=O)c2ccccc2C1=O (stereo unspecified)	0.5
CN1CCN(c2oc(COc3ccc(-c4ccccc4)cc3)nc2C#N)CC1	i
N=C1C=CC=C2C1=NC1(CCCCC1)N2O	2.4
CCCCn1cnc2cc(NCc3cccc(OC)c3O)ccc21	i
O=C(NCCc1ccc(Cl)cc1)C1CCCN(S(=O)(=O)c2cnc[nH]2)C1 (stereo unspecified)	i
CCOC(=O)N1CCN(S(=O)(=O)c2ccc3c(c2)OCC(=O)N3)CC1	0.1
CCN1C=C(C(=O)OC)C(c2cccc(C)c2)C(C(=O)OC)=C1	0.7
CCOC(=O)C1=C(N)N(c2ccccc2)C(=O)C1	1.0
NC1=NC(c2cccc(O)c2)n2c(nc3ccccc32)N1 (stereo unspecified)	1.1
O=C(CN1CCc2ccccc2C1)Nc1ccc(Br)cc1	i
COc1cc(C2c3c(oc4ccccc4c3=O)C(=O)N2Cc2ccco2)ccc1O (stereo unspecified)	i
O=C(Nc1cccc(C(F)(F)F)c1)C1CCN(S(=O)(=O)c2cnc[nH]2)CC1	i
c1nnc2c3c4c(sc3ncn12)CCC4	1.6
COc1ccc(-c2nn(C)c(=O)c3ccccc23)cc1NC(=O)COc1ccccc1	i
O=C(CN1C(=O)C2C3C=CC(C3)C2C1=O)Nc1nc2ccccc2[nH]1 (stereo unspecified)	2.0
COC(=O)c1ccc(Cc2ccc(C(=O)OC)o2)o1	2.1
Cc1ccc2c(c1)c1ncnc(N3CCc4ccccc4C3)c1n2C	0.6
CCn1c(=O)cc(OCC(=O)N(C)c2ccccc2F)c2ccccc21	1.5
CCOC(=O)c1sc(N)c(C#N)c1CSc1nc2ccc(C)cc2[nH]1	0.9
CC1=Nn2c(nc(-c3ccccc3)c2-c2ccccc2)N(CC(N)=O)C(=O)C1	0.5
COCc1nnc(NC(=O)c2ccc(S(=O)(=O)N(C)c3ccccc3)cc2)o1	0.2
Cc1nc2ccccc2c(=O)n1-n1cnnc1	i
Cc1csc(NC(=O)CSCC(=O)Nc2ccccc2)n1	0.0
CCOC(=O)Cn1nnnc1CN(Cc1ccc(OC)cc1)Cc1cc2cc(C)cc(C)c2[nH]c1=O	i
CCn1c(C(O)c2ccc(C)cc2)nc2ccccc21 (stereo unspecified)	i

Rewritten in markdown: entries from further up
| smiles | H5N1 antiviral |
| --- | --- |
| COc1ccc(-c2nn(C)c(=O)c3ccccc23)cc1NC(=O)COc1ccccc1 | i |
| O=C(CN1C(=O)C2C3C=CC(C3)C2C1=O)Nc1nc2ccccc2[nH]1 (stereo unspecified) | 2.0 |
| COC(=O)c1ccc(Cc2ccc(C(=O)OC)o2)o1 | 2.1 |

(listing goes on)
SMILES	H5N1 antiviral
Cc1cccc(NC(=O)c2sc3nc4c(c(-c5ccco5)c3c2N)CCC4)c1	i
O=c1c(-c2ccnn2-c2ccccc2F)cnc2n1CCS2	i
O=C(CSc1nnc(Cn2cnc3ccccc32)o1)c1ccccc1	1.0
Cc1nn(CC(O)COc2ccc3c(c2)CCC3)c(C)c1Br (stereo unspecified)	0.3
CCOc1ccc2nc(SCC(=O)c3ccc(Cl)s3)sc2c1	i
Cn1nc(-c2ccccc2)c(C(O)c2ccccc2C(F)(F)F)c1Cl (stereo unspecified)	i
CCOC(=O)c1sc(=S)n(-c2ccc3c(c2)OCO3)c1N	i
CC(=O)c1ccc(NC2OC(C)C(O)C(O)C2O)cc1 (stereo unspecified)	0.1
O=C(CNC(=O)c1ccco1)NCCCc1ccccc1	0.3
CCOc1ccc(NS(=O)(=O)c2ccc3[nH]cc(C(=O)NC(C)CC)c(=O)c3c2)cc1 (stereo unspecified)	0.4
COc1ccc2nc(C(F)(F)C(F)(F)F)c(C#N)c(N)c2c1	i
CCOC(=O)Nc1ccc(S(=O)(=O)NCCCN2CCOCC2)cc1	1.4
COc1ccc(C2SCC(=O)N2C)cc1 (stereo unspecified)	0.5
Cc1cccc(C)c1N1CCc2cn[nH]c21	i
CC1=C(C(=O)OCC(C)C)C(c2ccsc2)NC(=O)N1 (stereo unspecified)	1.5
CCN(CC)C(=O)CSC1=Nc2ccccc2C2=NC(c3ccccc3)C(=O)N12 (stereo unspecified)	2.0
O=C(O)c1ccc(NC(=O)C2(c3ccccc3)CCOCC2)cc1	0.7
Cc1ccc(-c2c3c(nc4sc(C(N)=O)c(N)c24)CCC3)cc1	1.6
Cc1ccc2c(Cl)c(C(=O)NCCCn3ccnc3)sc2c1	1.0
COCc1nnc(NC(=O)CCCOc2ccccc2)s1	i
CCOC(=O)C1CCN(S(=O)(=O)c2ccc(OCC(=O)OC)cc2)CC1	i
CCOC(=O)C1=C(C)N=c2s/c(=C/c3ccco3)c(=O)n2C1c1cccc(OC)c1 (stereo unspecified)	1.7
CC1(C)Cc2ccccc2-c2nc(CN3CCOCC3)[nH]c(=O)c21	1.3
CC(C)CC(c1nnnn1C(C)C)N1CCN(c2cccc(Cl)c2)CC1 (stereo unspecified)	i
COc1ccc(-c2noc(CN(C(=O)C(C)(C)C)C(C)C)n2)cc1	0.3

(listing goes on)
SMILES	H5N1 antiviral
COCC(C)n1c(C)cc(C(=O)COC(=O)c2oc3ccccc3c2C)c1C (stereo unspecified)	0.3
CCC(CC)C(=O)c1c[nH]c(C(=O)NCCCn2ccnc2)c1	i
Cc1ccsc1C1C=C(c2cccc(Br)c2)Nc2ncnn21 (stereo unspecified)	i
COc1ccc(C)cc1NC(=O)NC1CCN(Cc2ccccc2)CC1	i
CCOc1cc(NC(=S)NCC(C)C)c(OCC)cc1NC(=O)c1cccs1	i
COCCSc1ccccc1C(=O)Nc1nccs1	i
Cc1cnn(-c2cc(N/N=C/c3ccccc3F)ncn2)c1	0.7
CCOC(=O)C(NC(C)=O)(Nc1ccc(S(=O)(=O)Nc2onc(C)c2C)cc1)C(F)(F)F (stereo unspecified)	i
Cc1ccc2nc(-c3ccc(NS(C)(=O)=O)cc3)cc(-c3ccccc3)c2c1	i
COc1cc(NC(=O)Cc2ccccc2OC)cc(OC)c1	0.6
CC1=CC(C)(C)N(C(=O)CSc2nnc(-c3ccccc3)o2)c2ccc(C)cc21	1.9
Cc1cc(C)c(C#N)c(Oc2ccc(O)cc2)n1	i
COc1ccc2[nH]c(=O)c(CN(CCN3CCCC3)C(=O)Nc3ccccc3Cl)cc2c1	i
